NPYLR7 agonist = agonists of mosquito NPYLR7 receptor, primary screen, cell-based, Aedes aegypti, calcium fluorescence, mosquito biting behavior; Aedes aegypti neuropeptide Y-like receptor 7 (NPYLR7); HEK293T NPYLR7/Galpha15, GCaMP6s calcium fluorescence; activation, % at 10 µM; 270,000 compounds, 0.15% hits; AID 1259423, 2018; in the data active = activation above about 40%;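 note: 0% = vehicle and 100% = reference agonist at the receptor; some compounds past the cut are filed as inactive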
NPYLR7 agonist max-min = second read-out of NPYLR7 agonist, no call of its own (marks repeat the call); activation, %; measured here: Max-Min RFU normalised activation; some inactives read as strong as hits;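 span of the calcium signal over five minutes; 0% = vehicle and 100% = native peptide agonist; compound fluorescence can raise it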
* = called active by the depositor; & = joins results of further samples.

SMILES	NPYLR7 agonist	NPYLR7 agonist max-min
COc1ccnc(N(C)C2CCCC2)n1	13.9	12.2
Cc1ccc(F)cc1-c1cc2nc(NCCCN(C)C)n(C)c(=O)c2s1	11.8	4.4
CC(=O)N[C@@H]1C[C@H](CC(C)C)O[C@H](c2c(C)nn(C)c2Cl)C1	3.4	1.1
O=S(=O)(Nc1cccc(Cl)c1)c1c(F)cc(F)cc1Br	9.2	13.0
COC(=O)c1ncccc1OCc1cc(C)on1	5.0	2.6
Cc1cccc(COC(CN2CCN(S(=O)(=O)c3ccccc3C#N)CC2)c2ccc(Cl)cc2)c1 (stereo not drawn)	32.1	20.8
CCOC(=O)Cn1c(=NC(=O)c2nn(C)cc2C)sc2cc(OC)ccc21	1.8	7.8
CC1C(=O)N(c2ccc(F)c(Cl)c2)CCN1C(=O)CCc1ccccc1 (stereo not drawn)	-4.1	2.7
CN(C)CCCN(C(=O)c1cccc(S(C)(=O)=O)c1)c1nc2c(F)cc(F)cc2s1	0.0	-3.5
Cc1ccc(Cn2cc(C(=O)NNC(=O)Nc3ccc(Cl)c(Cl)c3)ccc2=O)cc1	2.7	1.6
Cc1cc(NC(=O)c2ccc(C#N)c(C)n2)ncc1Br	3.1	1.1
COc1ccccc1-c1cccc(C(=O)NCC2CCS(=O)(=O)C2)c1 (stereo not drawn)	6.1	2.3
COc1ccc(NC(=O)N2CCN(c3nc(C4CCCCC4)nc4sc5c(c34)CCCC5)CC2)c(OC)c1	-7.3	-6.7
CC1CC(C)CN(C(=O)Nc2cc(C#N)cn2C(C)(C)C)C1 (stereo not drawn)	-1.3&2.3	9.0&1.1
COc1c[nH]c(C(=O)NC2CC(=O)N(CCc3ccc(F)cc3)C2)cc1=O (stereo not drawn)	10.8	7.4
COc1ccc(C(=O)N2CCN(Cc3cc4n(n3)CCCNC4)CC2)cc1	1.5	-0.1
Cc1ccc(-c2csc(-n3nc(C)cc3NC(=O)CC(C)(C)C)n2)cc1	-6.9	-12.0
Nc1nonc1C(=O)N/N=C\c1cccc(OCC(=O)O)c1	-7.7	-16.9
Clc1ccc(OCCOCCN2CCCCC2)c(Br)c1	5.3	3.4
COC(=O)c1ccc(CSc2nc(=O)n3ccccc3n2)cc1	11.4	7.9
Cc1c(Cl)ccc2sc(N(Cc3ccccn3)C(=O)Cc3ccc(S(C)(=O)=O)cc3)nc12	16.7	15.5
CC(C)Cn1cc(C(=O)NC(c2ccccc2)c2ccco2)c(=O)c(C(=O)N2CCCCCC2)c1 (stereo not drawn)	14.9	4.8
Cc1ccc(CNC(=O)Cn2nc3c4ccc(Cl)cc4ncn3c2=O)cc1	-8.8	-12.3
CC(C)(C)c1ccc(COc2coc(CN3CCCN(S(=O)(=O)c4cc(F)cc(F)c4)CC3)cc2=O)cc1	19.1	16.6
CCc1nc2ccc(C(=O)N3CCNC(=O)C3)cn2c1N(C)Cc1ccc(OC)cc1	1.3	-10.9
CC(c1nc(N)nc(N(C)C)n1)N1CCCC1c1cccs1 (stereo not drawn)	15.7	9.9
Cc1ccc(N2C(=O)CC(Nc3ccc(S(=O)(=O)N4CCCC4)cc3)C2=O)c(C)c1 (stereo not drawn)	-2.2	-2.6
Cc1ccc(NC(=O)CC2CSc3nc(C(C)C)cc(=O)n32)cc1 (stereo not drawn)	-1.7	-2.4
Cc1cc(C)n(C(C)C(=O)NC2CCCN(c3ccccc3)C2=O)n1 (stereo not drawn)	-3.0	-5.2
CC1=CC(C)(C)Nc2cc(CN(C)C)c(O)cc21	2.0	1.6
CC1CN(c2cc(Cl)nc(SCC(=O)N3CCC4(CC3)OCCO4)n2)CCN1C(=O)c1cccc(F)c1 (stereo not drawn)	-3.4	2.4
CCOC(=NCC1CCCO1)NC(=O)c1ccc2c(c1)OCO2 (stereo not drawn)	-6.1	-2.3
Cn1nc(N2CCN(S(=O)(=O)c3ccc4c(c3)CCCC4)CC2)c(=O)n(C)c1=O	0.7	3.8
N#Cc1cn(CC2CC2)c2ccc(Cl)cc2c1=O	2.6	0.1
Cc1ccccc1CN(CCN(C)C)C(=O)c1ccc2nccn2c1	-13.7	-13.1
Cc1cccc(N2C(=NC(=O)CCC(=O)O)SC3CS(=O)(=O)CC32)c1C (stereo not drawn)	-8.4	-11.8
Cc1[nH]c2ccccc2c1N=Nc1ccccc1F	-0.2	-0.9
CCS(=O)(=O)c1cccc(C(=O)N(Cc2ccccn2)c2nc3c(OC)ccc(OC)c3s2)c1	-0.5	-1.9
CCCCc1nc(N2CCN(C(=O)C3C[C@H]3c3ccccc3)CC2)c2c3c(sc2n1)CC(C)CC3 (stereo partly drawn)	-10.8	-7.4
CCOC(=O)CN(C)Cc1nc(CC)cc(=O)[nH]1	0.0	-0.5
CCc1n[nH]c2c1CN(c1nc(-c3cccnc3)nc3c1cnn3C)CC2	-1.6	-0.8
O=C(N1CCC(c2nc(-c3ccc(F)c(F)c3)no2)CC1)C1(c2ccc(Cl)cc2)CCCC1	4.8	-0.1
c1cncc(-c2nccn2Cc2ccc3nsnc3c2)c1	28.2	16.1
Fc1cc(Br)ccc1CSc1nnc(-c2ccccc2)o1	2.2	-0.4
Cc1cc(C)n(C)c(=O)c1C(=O)Nc1cccc(C(=O)NC(C)(C)C)c1C	16.5	1.4
CC1CCCCC1NC(=O)CN1CCN(S(=O)(=O)c2cc(F)ccc2F)CC1 (stereo not drawn)	1.8	24.3
COCc1nc(NCCN2CCNC2=O)c2cnn(C)c2n1	21.2	17.4
Cc1c(Br)c([N+](=O)[O-])nn1CC(=O)NCCCN1CCOCC1	-6.4	-18.9
COc1ccccc1-n1cc(C(=O)N(C)Cc2nncn2C(C)C)cn1	-0.8	-4.1
COc1nc2c(cc1C(=O)N1CCc3c(nc(N(C)C)[nH]c3=O)C1)CCC2	9.4	5.9

(more compounds)
SMILES	NPYLR7 agonist	NPYLR7 agonist max-min
O=C(Cc1cccc(Br)c1)OC1CCOC1 (stereo not drawn)	1.0	-0.1
COC(=O)[C@@H]1C[C@H](NC(=O)Cn2c(=O)cc(C)c3ccccc32)CN1C	2.4	2.9
Cn1cc(CCn2ccc3c(cnc4ncnn43)c2=O)c2ccccc21	-1.2	4.1
C=CCCC(O)CN(Cc1c(C)nn(-c2ccccc2)c1Oc1ccc(F)cc1F)CC1CCCO1 (stereo not drawn)	5.2	8.7
CC1(C)[C@H]2CC=C(CN3CCC4(CC3)C(=O)N(Cc3ccccn3)C(=O)N4CCc3ccccc3)[C@@H]1C2	10.7	0.7
CC1(C)O[C@@H]2CC3C4CCC5=CC(=O)CCC5(C)C4(F)C(O)CC3(C)[C@]2(C(=O)CCl)O1 (stereo partly drawn)	-4.5	-6.5
Cc1ccc(C)c2[nH]c(=O)c(CCNC(=O)C(C)C)cc12	6.8	5.8
CCCCCCc1ccc(C(=O)N(CCOC)CC(=O)N(CCc2c[nH]c3ccccc23)Cc2ccc(C(F)(F)F)cc2)cc1	22.5	26.8
Cn1cc(S(=O)(=O)Nc2ccccc2CCC(F)(F)F)cn1	3.3	0.9
CCc1c(C)nn(C(=O)C(C)Oc2ccc(C)c(C)c2)c1C (stereo not drawn)	-1.7	-4.0

Entries shown so far that contain an aryl thioether with sulfur outside any ring (3):
SMILES	NPYLR7 agonist	NPYLR7 agonist max-min
COC(=O)c1ccc(CSc2nc(=O)n3ccccc3n2)cc1	11.4	7.9
CC1CN(c2cc(Cl)nc(SCC(=O)N3CCC4(CC3)OCCO4)n2)CCN1C(=O)c1cccc(F)c1 (stereo not drawn)	-3.4	2.4
Fc1cc(Br)ccc1CSc1nnc(-c2ccccc2)o1	2.2	-0.4

(further entries)
SMILES	NPYLR7 agonist	NPYLR7 agonist max-min
C=CCn1c(C)c(C)n2c3c(=O)n(CCC(=O)OC)c(=O)n(C)c3nc12	-8.8	-9.7
Cc1ccc(-n2nnnc2CNS(=O)(=O)c2ccc(C)cc2)cc1	-0.7	-3.5
Cc1ccn2c(NC(=O)C3CCC3)c(-c3ccccc3C)nc2c1	9.3	12.9
CCC(C)n1c(COc2ccccc2C)n[nH]c1=S (stereo not drawn)	4.8	4.0
CCNC(=O)[C@@H]1C[C@@H](N)CN1C(=O)Cc1ccc(OC)cc1OC	-7.8	-10.1
Cc1ccc(N2CC(C(=O)Nn3cnc4c(cnn4-c4ccccc4)c3=O)CC2=O)cc1 (stereo not drawn)	7.8	5.6
CCc1cccc(C)c1NC(=O)CN(Cc1cccs1)CC1CCCO1 (stereo not drawn)	-1.1	3.8
Cc1sc2nc(-c3cccs3)nc(NC3CCCC3)c2c1C	-12.5	-14.6
O=C(c1cn2cc(-c3ccc(Cl)cc3)ccc2n1)N1CCN(CCN2CCCCC2)CC1	6.5	3.0
CC1CCCCN1C(=O)c1ccc(CNc2ncccn2)cc1 (stereo not drawn)	-3.9	-3.9

Quoted from the listing.
In NPYLR7 agonist max-min, `CCC(C)n1c(COc2ccccc2C)n[nH]c1=S` (stereo not drawn) is listed with 4.0
In NPYLR7 agonist, `CC1CCCCN1C(=O)c1ccc(CNc2ncccn2)cc1` (stereo not drawn) is listed with -3.9

Single records (already shown).
Listed for CC1CCCCN1C(=O)c1ccc(CNc2ncccn2)cc1 (stereo not drawn) = NPYLR7 agonist: -3.9; NPYLR7 agonist max-min: -3.9
Listed for COc1ccc(NC(=O)N2CCN(c3nc(C4CCCCC4)nc4sc5c(c34)CCCC5)CC2)c(OC)c1 = NPYLR7 agonist: -7.3; NPYLR7 agonist max-min: -6.7

Going on with the list:
SMILES	NPYLR7 agonist	NPYLR7 agonist max-min
CN(Cc1cn(C)nc1-c1cccc(Cl)c1)C1CCOC1 (stereo not drawn)	-5.2	-8.0
CC(C)c1cccc(C(C)C)c1NC(=O)N1CCC2(CC1)SCCN2C(=O)c1ccc(C(F)(F)F)cc1	-3.7	2.6
O=P1(NCCc2ccccc2)C=C(c2ccccc2)SC(c2ccccc2)=C1	15.5	25.9
CCN(CC)CCN1C(=O)C(O)=C(C(=O)c2cccs2)C1c1ccc(C)o1 (stereo not drawn)	-3.5	-3.5
COC(=O)CSc1nnc(-c2cccc(OC)c2)n1-c1ccc(C)cc1	-10.5	-1.2
Cn1c(=O)c2c(ncn2CC(=O)NC(=O)NCc2ccco2)n(C)c1=O	2.5	4.1
NC1CCN(O)C1=O (stereo not drawn)	6.2	-8.2
CCCc1[nH]n(-c2ccc(Cl)cc2)c(=O)c1C1=C([n+]2ccccc2)C(=O)N(CC(C)C)C1=O	-1.1	12.1
CCOC(=O)c1cc(-c2cccc(NC(=O)c3cccc(OC)c3)c2)n(-c2ccc(F)cc2)n1	16.9	14.9
CC(C)(C)c1ccc(C(=O)ON2C(=O)c3ccccc3C2=O)cc1	3.5	1.3
C=C(C)C(O)(C(=C)C)c1ccc(CN(Cc2cccc(F)c2)Cc2ccco2)o1	-1.6	2.9
NC(=O)C1(NC(=O)Cc2ccc(OC(F)F)cc2)CCCCC1	-0.7	-0.7
CC(=O)OCC(COC(C)=O)OC(C)=O	7.0	-5.5
CCc1ncc(C(=O)N(C)C(C)c2ccon2)cn1 (stereo not drawn)	-4.1	-3.5
COc1ccc(-n2ncc(Oc3ccccc3)c(Nc3cccc(C(=O)NCc4ccncc4)c3)c2=O)cc1	9.8	10.9
CC(=O)Nc1nc(SCC(=O)N2CCCC2)[nH]c(=O)c1NC(=O)c1ccccc1	5.6	3.8
N#CC(C(=O)Nc1ccccn1)C(=O)C1CC1c1ccccc1C(F)(F)F (stereo not drawn)	3.1	1.6
Cc1cc(C2CCCN2C(=O)c2cc(-c3ccccc3)n[nH]2)on1 (stereo not drawn)	12.1&-3.0	6.6&-6.5
Cc1cc2ccccc2n1CCNC(=O)c1ccccc1	0.7	-4.6
CCCCn1c(CN2CC(C)CC(C)C2)nc2c1c(=O)n(C)c(=O)n2C (stereo not drawn)	9.4	8.3

Seven entries from above, with two lines to a compound:
Results follow in this order: NPYLR7 agonist, NPYLR7 agonist max-min
C=C(C)C(O)(C(=C)C)c1ccc(CN(Cc2cccc(F)c2)Cc2ccco2)o1
→ -1.6, 2.9
Cc1cc2ccccc2n1CCNC(=O)c1ccccc1
→ 0.7, -4.6
CC(=O)OCC(COC(C)=O)OC(C)=O
→ 7.0, -5.5
CC(=O)Nc1nc(SCC(=O)N2CCCC2)[nH]c(=O)c1NC(=O)c1ccccc1
→ 5.6, 3.8
CCc1ncc(C(=O)N(C)C(C)c2ccon2)cn1 (stereo not drawn)
→ -4.1, -3.5
NC(=O)C1(NC(=O)Cc2ccc(OC(F)F)cc2)CCCCC1
→ -0.7, -0.7
CCCCn1c(CN2CC(C)CC(C)C2)nc2c1c(=O)n(C)c(=O)n2C (stereo not drawn)
→ 9.4, 8.3

The list goes on.
SMILES	NPYLR7 agonist	NPYLR7 agonist max-min
CCc1cccc2c(C(CC(=O)NCc3ccccc3)c3ccccc3)cn(CC)c12 (stereo not drawn)	-9.0	-2.5
BrC=C(c1ccccc1)c1ccccc1	7.5	4.3
Nc1c(S(=O)(=O)c2ccccc2)c2nc3ccccc3nc2n1CCCO	7.6	11.4
Cc1onc(-c2ccccc2Cl)c1C(=O)N1C(C)CCCC1C (stereo not drawn)	7.1	1.7
COc1ccc(-c2cnc3ncnn3c2N2CCCN(C(=O)NCCc3ccccc3)CC2)cc1	12.3	2.8
CCC(c1nc2ccccc2c(=O)n1-c1ccc(C)cc1C)N(C)C(=O)Nc1ccc(Br)cc1 (stereo not drawn)	32.7	31.0
CC[C@@H](CO)NCCN[C@@H](CC)CO	12.4&-0.3	10.4&-3.6
CCCCn1c(N2CCN(Cc3ccc(Cl)c(Cl)c3)CC2)nc2c1c(=O)[nH]c(=O)n2C	-7.2	-9.6
CC1CCCC(NC(=O)COC(=O)COc2ccc(Cl)cc2)C1C (stereo not drawn)	-1.0	-1.8
Cc1ccc(F)c(S(=O)(=O)NC(=O)C2(C)CCN2C(=O)COc2ccc(Cl)cc2)c1 (stereo not drawn)	5.2	3.9
Cc1cc(C)n(-c2c(-c3ccccc3)c(=O)n3c4c(cccc24)CCC3)n1	3.5	2.3
CC(=NNc1nncc2ccccc12)c1ccc[nH]1	3.1	2.5
c1coc(-c2nnc(SCc3nc(-c4cccs4)no3)o2)c1	1.6	1.1
Nc1ccccc1C1OC2CCCCC2c2sccc21 (stereo not drawn)	-4.5	-11.2

Compound activity: PubChem BioAssay, Fisher Drug Discovery Resource Center

The list is partial (hit frequency here may not be typical).
